Screens (PubChem)
AID504770: E. coli YBA685 growth inhibition, screen for V. cholerae RctB inhibitors. E. coli YBA685 rctB-dependent plasmid, OD600 growth, 3 h; active compounds read low. z-score (concentration not given with the values). 130,000 tested, 0.27% active;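 active = z-score under -2 on both plates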;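 also: wells of about 30 µL received 100 nL stock; score is relative to mean and SD of the test wells; the first replicate is given; strong numbers were not always called active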
CapD inh: blocks the Bacillus anthracis CapD enzyme; purified CapD enzyme, fluorescence intensity read-out; active compounds read low; some hits fall short of the stated cut; z-score (no concentration beside the values); 140,000 tested, 0.23% active;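 active = z-score under -4 in either of two replicates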;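 also: stock transfer was 100 nL into about 40 µL; score is relative to mean and spread of the plate; one replicate is shown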
The depositor's hits bear a star; . = no result given; & = joins results of further samples.

SMILES	AID504770	CapD inh
COC(=O)C1=C(C(=O)OC)SC(=C2C(=S)C(C)(C)Nc3cc(C)c(C)cc32)S1	.	0.07
Cc1nc2nc(SCC(=O)Nc3ccccc3C(F)(F)F)nn2c(C)c1Cc1ccccc1	-1.7	-1.5
O=C(Cn1cncn1)N/N=C/c1ccccn1	0.55	.
O=C1C2=C(Nc3ccccc3SC2c2ccccc2)c2ccccc21 (stereo not drawn)	.	-0.47
CCCC(C)C(=O)Nc1ccc(OC)cc1 (stereo not drawn)	-0.6	.
CSc1cccc(NC(=S)N2CCCCC2CCN2CCOCC2)c1 (stereo not drawn)	.	0.59
Cc1cccc(C(=O)NC(C)C(=O)Nc2ccnn2C2CCCC2)c1 (stereo not drawn)	1.1	.
N#CCC(=O)N(c1nccs1)C1CCCCC1	0.4	.
O=C(c1cccc(N2C(=O)C3CC=CCC3C2=O)c1)N1CCCCCC1 (stereo not drawn)	-1.1	-0.36
CC(=O)N1c2ccccc2C(N(C(=O)CN2C(=O)c3ccccc3C2=O)c2ccccc2)CC1C (stereo not drawn)	.	-0.1
COc1ccccc1N1CCN(C(=O)C(C)(C)Cc2cc(C)cc(C)c2C(=O)O)CC1	.	-0.27
Cc1ccc(S(=O)(=O)NCCC(=O)N2CCOCCOCCOCC2)cc1	-0.2	-0.42
Clc1ccccc1N=Nc1cnc(-c2ccncc2)nc1-c1ccccc1	.	0.4
COC(=O)c1sc(NC(=O)CSc2ncnc3sc4c(c23)CCCC4)c(C(=O)OC)c1C	.	-0.32
Cc1c(Cl)cccc1NC(=S)N(Cc1ccco1)C(C)c1ccccn1 (stereo not drawn)	-0.2	-0.12
Brc1cc2c(cc1CSc1nnc(-c3c[nH]c4ccccc34)o1)OCO2	0.2	.
COc1ccc2c(c1OC)CN1CCc3cc4c(cc3C1C2)OCO4 (stereo not drawn)	0.6	0.36&-0.66
COc1ccc(Nc2ncc(C#N)c(N)n2)c(OC)c1	-0.1	0.14
Cc1cccc(OCc2nnc(SCC(N)=O)o2)c1	-0.15	.
Cc1ccc2c(c1)-c1c(ssc1=S)C(C)(C)N2C(=O)c1ccccc1	.	-0.14
COc1cc(/C=C2/SC(=Nc3ccccc3)NC2=O)ccc1OCC#N	.	0.9
CC1CN(S(=O)(=O)c2ccccc2)C(C)N1C(=O)N1CCOCC1 (stereo not drawn)	1.5	.
Cc1ccc(NC(=S)Nc2ccccc2C(=O)Nc2ccc(F)cc2)c(Cl)c1	.	0.92
CC1(C)CC2CC(C)(CN2S(=O)(=O)c2ccc(C(=O)Nc3cccc(-c4nc5ccccc5[nH]4)c3)cc2)C1 (stereo not drawn)	.	-0.46
O=C(CN(Cc1ccc2c(c1)OCO2)C(=O)CSc1nc2ccccc2o1)NC1CCCCC1	0.1	.
COc1ccc(C(=O)N/N=C/c2ccc3c(c2)Cc2ccccc2-3)cc1OC	.	1.4
COc1cc(S(C)=O)ccc1-c1nc2ncccc2[nH]1 (stereo not drawn)	.	-0.18&0.81
COC(=O)CCCSC1=Nc2cc(OC)c(OC)cc2C2=NC(=O)CN12	.	84
CC1CC(C)CN(S(=O)(=O)c2ccc(C(=O)NCc3ccco3)cc2)C1 (stereo not drawn)	1.8	.
CC(=O)N1CCC(C(=O)O)CC1	.	0.42
N#Cc1sc2nc3ccccc3n2c1N	-0.5	0.43
CCc1ccccc1NC(=O)c1cc2cc3ccc(OC)cc3nc2o1	0.6	-0.24
Cc1ccc(S(=O)(=O)/N=C(\c2ccccc2)N2CCCC2)cc1	-0.3	0.2
O=C(c1ccccc1)N1CCN(S(=O)(=O)c2ccc(Cl)cc2)CC1	.	-0.21
O=Nc1cc(CN2CCCCC2)c(O)c2ncccc12	-0.55	-3.5
COC(=O)CSc1nnc2n(-c3ccc(OC)cc3)c(=O)c3c4c(sc3n12)COC(C)(C)C4	.	0.08
CCN1CCCC1CNC(=O)CCCN1C(=O)CCn2nc(C)cc21 (stereo not drawn)	-0.5	0.12
COC(=O)c1c(NC(=O)c2ccoc2C)sc2c1CCCCC2	-0.85	12
O=C(NCCc1cccc(F)c1)OCCc1ccc(Br)cc1	.	0.02
COCCN=c1scc(-c2cccs2)n1/N=C/c1ccc(N2CCOCC2)cc1	0.7	.
N#CC1(NC(=O)COC(=O)CSc2nc3ccccc3o2)CCCCC1	0.35	.
COc1ccc(/C=C/C(=O)Nc2ccccc2N2CCCCC2)cc1OC	0	-1.4
CSc1ccc(Cl)c(C(=O)OCC(=O)N2CCc3ccccc3C2)c1	1.4	0.28
Cc1[nH]c2ccccc2c1C(=O)CN1c2ccccc2CC1C (stereo not drawn)	1.7	.
CC(=O)c1c(C)oc2ccc(N(C(=O)c3ccccc3)S(=O)(=O)c3ccc(C)cc3)cc12	.	-0.36
Cn1cc(C(CC(=O)O)C(=O)O)c2ccccc21 (stereo not drawn)	-0.8	0.65
CC(C)N(Cc1ccc(N(C)C)cc1)S(=O)(=O)c1ccc(F)cc1	-0.35	-0.55
Cc1cccc(C(=O)NCC(c2ccccc2)N(C)C)c1 (stereo not drawn)	0.2	.
Cc1oc2c(F)c(F)c(F)c(F)c2c1S(=O)(=O)Nc1cccc(C(F)(F)F)c1	2.5	-0.075
Cc1cc(C)cc(NC(=O)[C@@H](NC(=O)c2ccco2)C(C)C)c1	0.25	.
CC(Sc1nc(-c2ccccc2)cc(C(F)(F)F)n1)C(N)=O (stereo not drawn)	2.1	.
COc1ccc(-c2noc(N(C)CC(=O)N3CCN(c4ccccc4OC)CC3)n2)cc1	0.3	-0.24
COc1ccc(C(=O)Cc2ccccc2)cc1OC	-2.1	2.4
CCOC(=O)C1CCN(c2ncnc3scc(-c4ccccc4)c23)CC1	.	-0.03
O=C(NCc1ccc(F)cc1)C1CC(=O)N(Cc2ccco2)C1 (stereo not drawn)	-0.1	0.39
CN1CCN(C(=O)c2ccc(NCc3ccccc3Cl)c(S(=O)(=O)Nc3cccc(C(F)(F)F)c3)c2)CC1	.	1.5
CCCCCCCC1N[C@H](C(=O)O)CS1 (stereo partly drawn)	0.45	-0.16
COc1ccc2cc(CCNC(=O)c3cccc(C(F)(F)F)c3)c(=O)[nH]c2c1	-0.7	7.8
Cc1cc(C)n2nc(C(=O)N(C)CC(=O)Nc3ccc(Cl)c(C(F)(F)F)c3)nc2n1	-0.1	.
COc1cc2nc(C)[nH]c2cc1OC	-0.8	0.13
Carrying on:
SMILES	AID504770	CapD inh
N#CC1=C2C=CC=CN2/C(=C\c2cn(-c3ccccc3)nc2-c2cccs2)C1=O	0.2	.
O=C(CCN1CCN(c2ccccc2)CC1)Nc1nccs1	-1.1	0.09
CCc1ccccc1Nc1nc(-c2c(C)nc3sccn23)cs1	2.1	-0.59
CCOC(=O)c1c(C)nc2sccn12	0.25	0.4
CCOC(=O)C(=O)N1c2ccc(OC)cc2-c2c(ssc2=S)C1(C)C	.	-0.08
Cc1cc(NC(=O)c2ccc(Cl)cc2)no1	0.9	0.46
COc1ccc(/C=N/NC(=O)c2cc3ccccc3s2)c(C)c1C	.	0.69
Cc1ccc(S(=O)(=O)CCc2nc3ccccc3n2CCC#N)cc1	1	.
CCOC(=O)CNC(=O)c1ccccc1	.	-0.32
CCOC(=O)c1ccsc1NC(=O)CSc1ccccc1	-0.65	.
O=C(Sc1cccc2cccnc12)c1ccccc1Cl	-1.3	-0.46
O=C(NCCc1ccccn1)C1CC(=O)N(Cc2ccccc2Cl)C1 (stereo not drawn)	0.2	.
CCC(CC)C(=O)NCc1ccccc1	-1.4	0.24
Cc1ccc2[nH]c3c(=O)n(CC(=O)Nc4cccnc4)ncc3c2c1	0.5	4.2
C=CCc1cc(C)ccc1OCC(O)Cn1cnc2ccccc21 (stereo not drawn)	-0.15	0.44
COc1nc(C)c(/C=C/C(=O)N(C(=O)NC2CCCCC2)C2CCCCC2)c(OC)n1	-0.1	.
O=C(OCc1nnc(-c2ccccc2Br)o1)c1ccc2[nH]c3c(c2c1)CCCC3	0.45	.
Cc1cccc(OCc2nnc(SC(C)C(=O)O)n2Cc2ccccc2)c1 (stereo not drawn)	2.1	.
COc1ccc(N2CCN(c3cc(O)c4ccccc4c3O)CC2)cc1	0.65	.
Cc1ccc(C2=NN3C(=O)c4ccccc4C3C2)cc1 (stereo not drawn)	-0.1	-1.8
CCOc1ccc(C(C)(C)C)cc1S(=O)(=O)Nc1cccnc1	1	.
CCOC(=O)c1c(C)oc2ccc(N(C(=O)c3ccncc3)S(=O)(=O)c3ccc4ccccc4c3)cc12	.	-0.33
O=C(NC1CCCCC1)c1ccc2nsnc2c1	-0.6	0.3
Cc1onc(-c2ccccc2)c1C(=O)N=S(C)(C)=O	-0.2	0.49

2 records drawn at random from those above:
SMILES	AID504770	CapD inh
O=C(NC1CCCCC1)c1ccc2nsnc2c1	-0.6	0.3
Cc1cccc(OCc2nnc(SC(C)C(=O)O)n2Cc2ccccc2)c1 (stereo not drawn)	2.1	.

Next section
SMILES	AID504770	CapD inh
COc1cc(C(=O)Nc2ccc(O)c(-c3nc4cc(C)ccc4o3)c2)ccc1OCc1ccc(Cl)cc1	.	0.35
CCC(C)c1ccc(NC(=O)COC(=O)C2CCC2)cc1 (stereo not drawn)	0.85	-0.56
CCOC(=O)c1cc(-c2ccccc2)sc1NC(=O)C(C)N1CCN(C(=O)c2ccco2)CC1 (stereo not drawn)	-0.2	.
COc1cc(/C=N/NC(=O)COc2ncn(-c3ccccc3)n2)cc(OC)c1OC(C)=O	.	-0.19
O=C(Nc1ccccc1)N1CC2CC(C1)c1cccc(=O)n1C2 (stereo not drawn)	.	-0.45
COc1ccc(/C=C2/SC(=Nc3ccccc3)NC2=O)cc1Br	.	0.22
Cc1cc(NC(c2cccnc2)c2ccc3cccnc3c2O)no1 (stereo not drawn)	0.85	.
CN(CC(=O)c1ccccc1Br)C1CCCCC1	-1.4	.
COc1cc(OC)nc(C2CCCCC2C(=O)NCc2cccc(C(F)(F)F)c2)n1 (stereo not drawn)	.	0.11
Cc1nn(-c2ccccc2)c2sc(C(=O)N3CCCCC3)cc12	-0.3	0.48
Cc1nn(C)c(Cl)c1C(=O)NCC(=O)O	3	-0.55
CCOC(=O)c1sc2nc(C)c(C)c(C)c2c1N	-0.9	6.9
CC(C)CCNS(=O)(=O)c1ccc2c(c1)Cc1cc(S(=O)(=O)NCCC(C)C)ccc1-2	.	-0.01
Cc1cccc(-n2ccnc2SCC(=O)NC2CCCCC2)c1	0	3.4
O=C(O)c1cc2ccc3cccc4ccc(c1)c2c34	-0.5	-0.17
CC1=NN(c2ccc(C)c(C)c2)C(=O)/C1=C/c1ccc(-c2ccc3c(c2)C(=O)NC3=O)o1	0.25	0.11
Cc1cccc(N2CCN(CCNC(=O)c3cc4c(s3)CS(=O)(=O)C4)CC2)c1C	0.1	-0.67
O=C(O)c1ccc[nH]c1=S	-1.5	-1.3
O=C1NC(=O)/C(=C/c2ccc(O)cc2)N1	.	-2.5
COc1ccc(NS(=O)(=O)c2cc3c(cc2Cl)NC(=O)CO3)c(OC)c1	0	-0.73
CN1CCC(=NNC(=O)CN(c2ccccc2)S(=O)(=O)c2ccccc2)CC1	-1.3	0.26
CCCNC(=O)CSc1n[nH]c(=S)s1	0.95	.
NS(=O)(=O)c1ccc(NC(=O)CN2C(=O)S/C(=C/c3ccccc3)C2=O)cc1	.	-0.33
CN1C(=O)C2(OCC(COc3ccc(Cl)cc3)O2)c2ccccc21 (stereo not drawn)	-0.25	-0.52
CC1(C)CCC(C)(C)c2cc(-c3csc(CC#N)n3)ccc21	-0.75	9.5
COc1ccc(/C=c2/sc3nc4ccccc4n3c2=O)cc1	0.15	-0.48
CCOc1cccc(NC(=O)C2CC(=O)N(C)C(=Nc3ccc(C(=O)OC)cc3)S2)c1 (stereo not drawn)	.	0.42
Cc1nc2c(c(C)nn2C)c(C)c1CCC(=O)NCc1ccccc1	0.05	2.3
CCc1ccc(NC(=O)CSC2=NC3C(=O)N(C)C(=O)N(C)C3N2C)cc1 (stereo not drawn)	0.55	.
Clc1ccc(-c2nc(-c3[nH]ncc3Br)no2)cc1	0.15	-0.34
Nc1nc(SC2c3ccccc3-c3ccccc32)n[nH]1	-0.3	0.56
CCOC(=O)c1cc(C#N)c(Cl)nc1-c1ccccc1	-0.75	-0.16
CC(C)(C)C(=O)n1cc(-c2cnccn2)c(-c2ccc(C(F)(F)F)cc2)n1	.	-0.33
C1CCN2C[C@@H]3C[C@H](CN4CCCC[C@@H]34)[C@H]2C1	0.3	.
CC(C)Sc1nnc2c(n1)[nH]c1ccccc12	.	6
N#Cc1cc(C(=O)c2ccccc2O)cn2c1nc1ccccc12	1.4	.
CN(C)CCNC(=O)c1c(O)c2c(n(C3CC3)c1=O)CCCC2	0.45	.

Gathered by group: the compounds so far containing an aryl thioether with sulfur outside any ring
SMILES	AID504770	CapD inh
Cc1nc2nc(SCC(=O)Nc3ccccc3C(F)(F)F)nn2c(C)c1Cc1ccccc1	-1.7	-1.5
CSc1cccc(NC(=S)N2CCCCC2CCN2CCOCC2)c1 (stereo not drawn)	.	0.59
COC(=O)c1sc(NC(=O)CSc2ncnc3sc4c(c23)CCCC4)c(C(=O)OC)c1C	.	-0.32
Brc1cc2c(cc1CSc1nnc(-c3c[nH]c4ccccc34)o1)OCO2	0.2	.
Cc1cccc(OCc2nnc(SCC(N)=O)o2)c1	-0.15	.
O=C(CN(Cc1ccc2c(c1)OCO2)C(=O)CSc1nc2ccccc2o1)NC1CCCCC1	0.1	.
COC(=O)CSc1nnc2n(-c3ccc(OC)cc3)c(=O)c3c4c(sc3n12)COC(C)(C)C4	.	0.08
N#CC1(NC(=O)COC(=O)CSc2nc3ccccc3o2)CCCCC1	0.35	.
CSc1ccc(Cl)c(C(=O)OCC(=O)N2CCc3ccccc3C2)c1	1.4	0.28
CC(Sc1nc(-c2ccccc2)cc(C(F)(F)F)n1)C(N)=O (stereo not drawn)	2.1	.
CCOC(=O)c1ccsc1NC(=O)CSc1ccccc1	-0.65	.
Cc1cccc(OCc2nnc(SC(C)C(=O)O)n2Cc2ccccc2)c1 (stereo not drawn)	2.1	.
Cc1cccc(-n2ccnc2SCC(=O)NC2CCCCC2)c1	0	3.4
CCCNC(=O)CSc1n[nH]c(=S)s1	0.95	.
Nc1nc(SC2c3ccccc3-c3ccccc32)n[nH]1	-0.3	0.56
CC(C)Sc1nnc2c(n1)[nH]c1ccccc12	.	6
